Assay outcomes deposited in PubChem BioAssay by Fisher Drug Discovery Resource Center.
NPYLR7 ag – activates Aedes aegypti NPYLR7 receptor. HEK293T NPYLR7/Galpha15, GCaMP6s calcium fluorescence. activation, % at 10 µM. 270,000 tested, 0.15% active; in the data active means activation above about 40%;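 further: 0% = vehicle and 100% = reference agonist at the receptor; some compounds past the cut are filed as inactive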
NPYLR7 ag max-min – recorded beside NPYLR7 ag, whose call it bears; activation, %; measured here: Max-Min RFU normalised activation; some inactives read as strong as hits;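 span of the calcium signal over five minutes; 0% = vehicle and 100% = native peptide agonist; compound fluorescence can raise it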
An asterisk follows results filed as active; & = joins results of further samples.

SMILES	NPYLR7 ag	NPYLR7 ag max-min
Cc1ccc(N2C(=O)CC(N3CCCCCC3)C2=O)cc1 (stereo not drawn)	-5	-10
O=S(=O)(c1ccc(Cl)s1)N(Cc1cccs1)c1ccc2c(c1)OCCO2	4	11
CCCOCC(=O)N(C)C(c1csc2ccccc12)C1CC1C (stereo not drawn)	0	-1
O=C1C(=Cc2ccco2)Sc2ccccc21	8	-3
Cc1cccc(C(=O)Oc2coc(CSc3nc(C)cc(C)n3)cc2=O)c1	4	2
COc1ccc(S(=O)(=O)N(CCN2CCCCC2)Cc2csc(COc3cc(Cl)ccc3Cl)n2)cc1	3	14
CNC(=S)N(Cc1ccc(S(N)(=O)=O)cc1)CC(F)(F)F	18	12
O=S(=O)(NNC1=NCCCCC1)c1ccccc1	-10	-16
O=C1CNCC(C(=O)N2CCN(c3cccc(C(F)(F)F)c3)CC2)N1 (stereo not drawn)	7	4
O=C1CCN(c2ccccc2C(=O)Nc2cnc3n2CCCC3)C(=O)N1	2	1
Cc1cc(C2CCCN(C(=O)CN(C)S(C)(=O)=O)C2)n[nH]1 (stereo not drawn)	-2	-3
Cc1ccc(C(=O)N(C)CCC(=O)OC(C)(C)C)c(C)n1	12	9
CCOC(=O)CCC(=O)N1CCN(c2nccc(-c3ccc(C(C)(C)C)cc3)n2)CC1	23	34
Cc1c(C(=O)N2CCCC2C)cnc2c(-c3cccs3)cnn12 (stereo not drawn)	-10	-11
O=C(c1ccc2cccc(F)c2n1)N(Cc1cncs1)C1CC1	7	4
NC(=O)[C@@H]1CCCN1Cc1cn(CC2CCN(c3ccncc3)CC2)nn1	0	-4
C=CCNC(=S)Nc1cccc2ccccc12	-10	-17
CCOc1ccc(NC(C)C(=O)N2C(C)CCCC2C)cc1 (stereo not drawn)	-1	-2
O=S(=O)(NCc1ccccc1)NCc1csc(-c2cnccn2)n1	5	2
COc1cccc(Cc2nsc(N3CCCN(C(=O)c4cccc(Br)c4)CC3)n2)c1	7	8
CC(=O)N1N=C(c2cccs2)OC1C(=O)NCC(C)(C)CN(C)C (stereo not drawn)	12	6
COc1ccc(S(=O)(=O)N(CC(=O)NC2CCCCC2O)c2ccc(C)cc2)cc1OC (stereo not drawn)	3	3
O=C(Cc1ccccc1)n1nc(-c2ccccc2)nc1NCc1ccccc1	26	19
Cc1c(C(=O)NCc2ccc3c(c2)OCCO3)sc(=O)n1Cc1cccc(F)c1	14	10
COc1ccc(-c2nnc3ccc(OCCNC(=O)Nc4cccs4)nn23)cc1OC	-3	-3

6 entries picked at random from those above:
SMILES	NPYLR7 ag	NPYLR7 ag max-min
COc1ccc(S(=O)(=O)N(CC(=O)NC2CCCCC2O)c2ccc(C)cc2)cc1OC (stereo not drawn)	3	3
CNC(=S)N(Cc1ccc(S(N)(=O)=O)cc1)CC(F)(F)F	18	12
O=C1C(=Cc2ccco2)Sc2ccccc21	8	-3
O=C(Cc1ccccc1)n1nc(-c2ccccc2)nc1NCc1ccccc1	26	19
O=S(=O)(NCc1ccccc1)NCc1csc(-c2cnccn2)n1	5	2
C=CCNC(=S)Nc1cccc2ccccc12	-10	-17

Single entries from above.
Cc1c(C(=O)NCc2ccc3c(c2)OCCO3)sc(=O)n1Cc1cccc(F)c1 – NPYLR7 ag max-min = 10
CCCOCC(=O)N(C)C(c1csc2ccccc12)C1CC1C (stereo not drawn) – NPYLR7 ag max-min = -1

Next part
SMILES	NPYLR7 ag	NPYLR7 ag max-min
OCCN1C[C@H](O)[C@@H](O)[C@H](O)[C@H]1CO	-11	-18
COC(=O)c1cccc(=S)n1C	-4	-7
COc1cc(OC)cc(N2CCN(C(=O)c3ccc(Cl)cc3Cl)C(C)C2=O)c1 (stereo not drawn)	-11	6
Cn1c(CN2CCCC(CNC(=O)c3ccc(-c4ccccc4)cc3)C2)nc2ccccc21 (stereo not drawn)	12&8	4&10
CC(C)c1c(C(=O)NCC2CCCO2)cnn1-c1ccccn1 (stereo not drawn)	-1	-2
Cc1ccc(C)c(OCC(O)Cn2cnc3scc(-c4ccc(F)cc4)c3c2=O)c1 (stereo not drawn)	5	1
COc1ccc(-c2cc(C(=O)NCCc3ccccn3)n3nc(-c4ccc(Cl)cc4)cc3n2)cc1	19	16
O=C(CCOc1ccccc1)Nc1ccnn1C1CCN(C(=O)c2cnsn2)CC1	8	8
O=C1C2C3C=CC(C3)C2C(=O)N1c1ccc(Cl)c(F)c1 (stereo not drawn)	-11	-15
Cc1ccc(C(=O)O)cc1NC(=O)CN1C(=O)c2ccccc2C1=O	-8	-12
CC(C)(C)c1ccc(C(=O)N2CCC2(C)C(=O)Nc2ccc3nc[nH]c3c2)cc1 (stereo not drawn)	11	8
Cc1cccc(C)c1C(=O)Nc1nnc(NS(C)(=O)=O)s1	-5	-4
CCc1ccccc1N1CCN(C(=O)c2ccc(OC)cc2)C(C)C1=O (stereo not drawn)	-7	6
COC(=O)Cc1c(C)nc2c(-c3ccccc3)c(C)[nH]n2c1=O	-3	-5
COc1cccc(COc2coc(C(=O)NCc3ccc(S(N)(=O)=O)cc3)cc2=O)c1	1	0
Cc1nc2nc(NC(=O)C3CCCCC3)[nH]n2c(=O)c1C	-2	-1
CC1Cc2cc(S(N)(=O)=O)ccc2N1C(=O)CCl (stereo not drawn)	3	-1
COc1cccc(-c2cc(-c3ccc(C(=O)NCCc4cccnc4)cc3)[nH]n2)c1	0	-8
COS(C)(=O)=O	3	-4
CN(Cc1ccc2nsnc2c1)C(=O)CCN1CCCO1	-1	-7
Cc1[nH]c(C(=O)N2CCCCC2)c(C)c1C(=O)OC(C)C	13	3
O=C(CCN1CCCC1c1cccs1)Nc1ccccc1F (stereo not drawn)	-1	-2
c1c(CN2CCN(C3CCSCC3)CC2)nn2c1CNCCC2	-2	-12
O=S1(=O)CCCC1Nc1nc(NCCO)c2cnn(-c3ccc(F)cc3)c2n1 (stereo not drawn)	0	1
Cc1ccc(C(=O)Nn2cnc3c(cnn3-c3ccc(C)cc3)c2=O)cc1	3	0
SMILES	NPYLR7 ag	NPYLR7 ag max-min
N#CCCn1c(SCC(=O)Nc2cccc3nsnc23)nc2ccccc21	5	2
CC(C)(C#N)NNC(N)=S	-5	-13
O=S(=O)(NCCOc1cc(N2CCCC2)ncn1)c1ccc2c(c1)CCCC2	2	4
CCc1cccc(C)c1NC(=O)NCC(C)N1CCC(C)CC1 (stereo not drawn)	3	2
CCCCn1nnnc1CNC1(c2ccc(Cl)cc2)CCCC1	4	3
CC(C)(C)C(=O)C=c1[nH]c(=O)c(=Cc2c(F)c(F)c(F)c(F)c2F)s1	10	17
CCOc1ncccc1C(=O)NC1CCCc2occc21 (stereo not drawn)	7	2
Cc1cc(C(=O)N(Cc2ccsc2)CC(C)C)n[nH]1	-7	-11
COC(=O)c1ccc(CN2C(=O)C3CCCCC3C2=O)o1 (stereo not drawn)	12	7
Cc1ccccc1C1c2ccsc2CCN1C(=O)CN(CC1CCCO1)S(=O)(=O)c1ccc(Cl)cc1 (stereo not drawn)	10	4
O=S(=O)(NCC1CCCN(Cc2cc3ccccc3o2)C1)c1cccc2cccnc12 (stereo not drawn)	2	0
CC(=O)NCc1nnc2n1CCN(C(=O)COc1ccccc1C)CC2	14	6
COCC(c1ccccn1)N(C)C(=O)c1ccc2c(c1)OCCN2C (stereo not drawn)	-1	-11
CCCN(Cc1cccnc1)C(=O)[C@@H](N)Cc1cscn1	-1	0
O=C(CCCc1ccccc1)Nc1ccnn1C1CCN(C(=O)CCn2cncn2)CC1	2	-2
CC(C)(C)OC(=O)N1CCN(C(=O)c2cc(Br)c[nH]2)CC1	1	3
O=S(=O)(Nc1ccc2c3c(cccc13)CC2)c1cccc(F)c1	5	-1
CC1CC1C(=O)Nc1ccc(NC(=O)c2ccccc2)nc1 (stereo not drawn)	-3	-4
Cc1cccn2c(=O)c3cc(C#N)c(=O)n(CCCN4CCOCC4)c3nc12	0	0
COc1ccc(-c2csc(N3N=CCC3(O)C(F)(F)F)n2)cc1 (stereo not drawn)	6&5	11&3
CCOC(=O)c1ccc2c(c1)nc(SCC(=O)NCc1ccccn1)n2CCc1ccc(OC)cc1	-1	-3
CN1CC2(CCCN(Cc3ccc(Sc4nncn4C)o3)CC2)OC1=O (stereo not drawn)	5	7
COc1ccc(-c2nn(-c3ccc(C)cc3)c(OC(C)=O)c2-c2ccc(NC(=O)c3ccccc3C)cc2)c(OC)c1	15	20
CCSc1ccc(C(=O)Nc2cc(OC)c(OC)cc2F)cn1	4	2
C=CCNC(=O)Cn1c(=O)c2c(OCCC)ccnc2n(C)c1=O	-2	-1

A different layout for part of the listing above.
Second line of a record – NPYLR7 ag, NPYLR7 ag max-min
COCC(c1ccccn1)N(C)C(=O)c1ccc2c(c1)OCCN2C (stereo not drawn)
  -1, -11
Cc1ccccc1C1c2ccsc2CCN1C(=O)CN(CC1CCCO1)S(=O)(=O)c1ccc(Cl)cc1 (stereo not drawn)
  10, 4

Next results follow.
SMILES	NPYLR7 ag	NPYLR7 ag max-min
Cc1ccc(CCS(=O)(=O)c2ccc(C(C)C)cc2)c[n+]1C	1	0
CCc1nc(C(C#N)C(=O)C2C(C=C(C)C)C2(C)C)sc1C (stereo not drawn)	-7	644
CCc1nnc(N/N=C\c2cc(C)c(C)cc2C)n1N	-10	-18
CCN(CC)c1ccc(NC(=O)C2(C(=O)NC3CC3)CCC2)cc1	9	7
CC(C)(C)c1ccc(-c2nc(-c3ccncc3)no2)cc1	-5	-14
CC(=O)N(C)c1ccc(NC(=O)CN2CCC(O)(c3ccccc3C)C2)cc1 (stereo not drawn)	-14	-14
COC(=O)c1cn(CC(=O)N[C@H](C(=O)OC)C(C)(C)C)nn1	-2	-3
COc1cc2cc(C(=O)NC(C)C)cc(-c3ccc(C)cc3)c2cc1OC	-9	-13
CC1CCCN(S(=O)(=O)c2ccc3c(c2)nc(SCc2ccc(Cl)cc2F)n3CC2CCCO2)C1 (stereo not drawn)	11	2
Cc1cc(NC(=O)CSCc2cccs2)n(C)n1	6	4
CCOC(=O)[C@@H]1[C@@H](O)C(=O)N(C)C12CCN(C(=O)c1ccc(OC)cc1)CC2	3	12
C=C1c2ccccc2NC(=O)N1CC1CCCN1CC (stereo not drawn)	1	1
COCCOC(=NCCCN1CCOCC1)NC(=O)c1cccs1	14	25
CC(C)(C)OC(=O)N1CCN(Cn2ccn(-c3cccc(F)c3)c2=S)CC1	0	-3
COc1ccc(N2CCCN(C(C)C(N)=O)CC2)cc1 (stereo not drawn)	-20	-25
CC1=CC[C@@H]2CN(Cc3ccc(C(=O)Nc4cnn(C)c4)cc3)C[C@@H]2C1	-1	-6
CCCc1cc(C(=O)NCC2Cc3cc(-c4ccnc(SC)n4)cc(Cl)c3O2)no1 (stereo not drawn)	18	13
O=C1c2ccccc2C(=O)N1CCCCN(C(=O)c1ccc(Cl)cc1)c1ccc(F)cc1F	-1	-8
CCC(C)NC(N)=NCc1ccc(Cn2ccnc2)cc1 (stereo not drawn)	5	11
O=C(COc1ccccc1)Nc1cccc(C2SCC(=O)N2c2ccc(F)cc2F)c1 (stereo not drawn)	17	13
CCc1nc(C)c(C2=NC(=Cc3ccccc3)NN2)o1	0	-1
Cc1occc1C(=O)N(CCN(C)C)CC1CCCO1 (stereo not drawn)	-4	-5
COc1ccc(OC)c(N2C(=O)C3C4C=CC(CC4)C3C2=O)c1 (stereo not drawn)	-5	-15
Cc1cccc(OCC(=O)NNC(=O)COc2cc(C)c(Cl)c(C)c2)c1	0	-5
Cc1nc(-n2nc(-c3cccs3)cc2NC(=O)c2ccc(OC(C)C)cc2)[nH]c(=O)c1C	1	-1
SMILES	NPYLR7 ag	NPYLR7 ag max-min
COC(=O)c1ccc(NC(=O)NCc2ccn(C)c2)c(F)c1	-1	-7
CC(=O)c1[nH]c(C(=O)O)c(C)c1C	0	4
COc1ccc(-c2cc(C(=O)N3CCN(C(=O)c4ccccc4OC)CC3)c(C)n2-c2cccc(OC)c2)cc1	-7	2
O=C(Nc1ccc(F)cc1F)c1cccc(CN2CCNC(=O)C2CCO)c1 (stereo not drawn)	1	0
Cc1cc(N2C(=O)C3C4C=CC(C4)C3C2=O)ccc1Br (stereo not drawn)	-7	-14
CC(=O)OCC(=O)N1CCC(n2c(=O)oc3ccc(F)cc32)CC1	6	4
O=C(NC(=S)NC1CCCC1)c1ccco1	3	2
CCCc1c(C)nn(-c2ccc(C(=O)NCCCN(C)c3ccccc3)cc2)c1C	-8	-11
CCOC(=O)N1CCN(Cc2nc3c(c(=O)n(C)c(=O)n3C)n2Cc2ccccc2C)CC1	-2	-2
O=C(CNC(=O)c1cccs1)NC1=NCCS1	14	12
COc1ccc(N2C(=O)C(c3c(-c4ccccc4)[nH]n(C(C)(C)C)c3=O)=C(N3CCOCC3)C2=O)c(OC)c1	4	14
Cc1nonc1N1CCN(Cc2nc(C(c3ccccc3)c3ccccc3)no2)CC1	17	9
COc1cccc(C(=O)Nc2ccc(Nc3ccc(-n4cccn4)nn3)cc2)c1	-5	-11
COc1cccc(NC(=O)C2(C)CCN2Cc2ccc(OC)c3ccccc23)c1 (stereo not drawn)	7	4
COCCN(Cc1nc2ccccc2o1)C(=O)COc1ccc(Cl)cc1	4	4
COc1ccc(CC2CN(Cc3cnc(-c4ccccn4)nc3)CCO2)cc1 (stereo not drawn)	7	6
CC(C)C(=O)c1ccc2c(c1)oc(=O)n2Cc1noc(C2CC2)n1	0	6
COCCCNC(=O)CC(c1ccc(OC)c(OC)c1)c1cn(C)c2ccccc12 (stereo not drawn)	-1	4
Cc1ccc(Cc2nsc(N3CCC(CNC(=O)Nc4cccc(F)c4)CC3)n2)cc1	17	24

A portion of the library; rates above refer to the full screens.
